Screening results (PubChem)
LASV entry inh – Lassa virus entry inhibition; Lassa virus pseudotype entry inhibition, cell reporter; control for the full effect not named in the record; Potency, µM (titrated, usually from 37.9 µM), for inactives: top-dose activity change, negative = inhibition, usual class: inhibitors; hit rate 1.2% among 300,000; AID 540256; active means well fitted inhibition curve with a large enough effect; inconclusive means small, poorly fitted or top-dose-only effect, or effect the other way; inactive means flat fitted curve, though single readings scatter; tested in HEK293 cells; note: % is set by controls: 0 for no effect and ±100 for the full control effect; nearly all actives have a fitted effect of over 50% in size; luciferase read-out
NS1 inh – influenza NS1 inhibition; S. cerevisiae slowed by influenza A NS1, growth recovery by OD600; Potency, µM (series often up to 46.1 µM), without a hit: at the highest dose activity, positive = more growth; AID 2326; hit rate 0.4% among 270,000; note: actives are rising curves; nearly all actives have a fitted effect of over 50% in size
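Read-out: OD600 growth recovery of NS1-expressing budding yeast. Cells grown overnight at 30C in -URA glucose medium, washed, resuspended and diluted 1:100 in 2% galactose assay medium, pH 6.0. Same strain lacking NS1 served as positive control.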
SARS PLpro yeast – blocks SARS-CoV papain-like protease in a yeast assay | hit rate 0.19% among 330,000 | AID 485353 | Potency, µM (titrated, usually from 32.9 µM), without a hit: top-dose activity, positive = growth rescue | S. cerevisiae expressing SARS-CoV PLpro, growth rescue; control for the full effect not named in the record; note: 0% is about no effect; nearly all actives have a fitted effect of over 55% in size; growth read by luminescence after 48 h
2A StopGo – FMDV 2A StopGo reporter, luciferase signal | human cells with a luciferase reporter of 2A StopGo recoding; control for the full effect not named in the record | Potency, µM (top dose mostly 57.9 µM), for inactives: at the highest dose signal change, negative = less light | hit rate 1.2% among 410,000 | AID 1159524; active = well fitted falling curve with a large enough effect; inconclusive = small, poorly fitted or top-dose-only effect; inactive = no such curve, though single readings can be large or run the other way; tested in HEK293T cells; note: % is set by controls: 0 for no effect and ±100 for the full control effect; nearly all actives have a fitted effect of over 45% in size; luciferase light after 4 h
RE007 growth inh – less growth of the S. pombe RE007 Vpr strain; hit rate 0.21% among 360,000; AID 651644; Potency, µM (highest dose often 92.2 µM), without a hit: top-dose activity change, negative = less growth; S. pombe RE007 Vpr strain, BacTiter-Glo ATP luminescence, 24 h; control for the full effect not named in the record; active = well fitted falling curve with a large enough effect; inconclusive = small, poorly fitted or top-dose-only effect; inactive = no such curve, though single readings can be large or run the other way;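 note: % is set by controls: 0 for no effect and ±100 for the full control effect; nearly all actives have a fitted effect of over 50% in size; the assay follows cell death caused by Vpr and the record does not say whether a fall means rescue or toxicity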
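Fission yeast RE007 carrying one integrated HIV-1 vpr copy, seeded at OD 0.01 in PMG+AL medium with 23 nL pinned compound. Grown 24 h at 30 degrees; viability read by BacTiter-Glo luminescence after 5 min.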
Cruzain inh Det – cruzain (T. cruzi) inhibition with detergent; P25779; purified cruzain, Z-FR-AMC fluorescence, 0.01% Triton; Potency, µM, inactives show max response, negative = inhibition, most hits filed as inhibitors; hit rate 0.43% among 200,000; active = well fitted curve in the direction sought with a large enough effect; inconclusive = small, poorly fitted or top-dose-only effect, or another doubt; inactive = no such curve, though single readings can be large; an effect the other way counts as inactive or inconclusive;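 note: plate controls were neutral wells for no effect and buffer without enzyme for full effect; nearly all actives have a fitted effect of over 40% in size; top concentration of the series not given in the record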
Target sequence (P25779 123-467 limits assumed): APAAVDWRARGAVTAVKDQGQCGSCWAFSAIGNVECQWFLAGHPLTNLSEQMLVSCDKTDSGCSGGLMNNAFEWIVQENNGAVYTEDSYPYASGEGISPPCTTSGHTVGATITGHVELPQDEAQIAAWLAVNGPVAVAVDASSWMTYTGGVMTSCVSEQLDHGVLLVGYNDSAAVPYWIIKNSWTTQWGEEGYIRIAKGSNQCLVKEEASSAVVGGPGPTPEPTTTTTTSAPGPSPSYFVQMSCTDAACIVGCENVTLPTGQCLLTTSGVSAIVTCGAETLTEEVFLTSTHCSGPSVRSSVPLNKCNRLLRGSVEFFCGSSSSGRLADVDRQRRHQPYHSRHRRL
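Detergent-containing arm of a paired screen for aggregation-based inhibition: 0.01% Triton X-100 present. Cruzain at 1.5 nM cleaved 2 uM Z-FR-AMC at pH 5.5 with 5 mM DTT; AMC fluorescence gain over 60 s measured activity.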
Cruzain noTriton – blocks cruzain activity in detergent-free assay. Potency, µM, without a hit: max response, negative = inhibition, most hits filed as inhibitors. purified cruzain, Z-FR-AMC fluorescence, no detergent. AID 1476. P25779. hit rate 2.3% among 200,000; active = well fitted curve in the direction sought with a large enough effect; inconclusive = small, poorly fitted or top-dose-only effect, or another doubt; inactive = no such curve, though single readings can be large; an effect the other way counts as inactive or inconclusive;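 note: plate controls were enzyme without inhibitor for no effect and buffer without enzyme for full effect; nearly all actives have a fitted effect of over 40% in size; top concentration of the series not given in the record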
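Detergent-free condition (0.00005% Triton X-100) in acetate buffer pH 5.5 with DTT. 1.5 nM enzyme and compound were pre-mixed 15 min, then 2 uM Z-FR-AMC substrate added; reaction progress from fluorescence change between first and third reads (60 s).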
MARV entry inh – blocks Marburg virus binding to or entry into cells. Marburg virus pseudotyped entry inhibition, cell reporter; control for the full effect not named in the record; about a third of the inactives were read at about 46 µM. hit rate 1.8% among 300,000. Potency, µM (series often up to 37.8 µM), for inactives: top-dose activity change, negative = inhibition, most hits filed as inhibitors. AID 540276; active = well fitted inhibition curve with a large enough effect; inconclusive = small, poorly fitted or top-dose-only effect, or effect the other way; inactive = flat fitted curve, though single readings scatter; tested in HEK293 cells; about a fifth of its hits are not listed in these tables; note: % is set by controls: 0 for no effect and ±100 for the full control effect; luciferase read-out
Numbers without * were called inactive; ? = inconclusive; / = not tested or not shown; & = joins results of further samples; [ ] = dose if it differs, or a comment. Unless noted, calls come from the whole dose curve; as a rule, active means well fitted rising curve with a large enough effect; inconclusive means small, poorly fitted or top-dose-only effect; inactive means no such curve, though single readings can be large or run the other way. Potency is the fitted concentration of half-maximal effect.

SMILES | LASV entry inh | NS1 inh | SARS PLpro yeast | 2A StopGo | RE007 growth inh | Cruzain inh Det | Cruzain noTriton | MARV entry inh
O=C1C(=O)N(Cc2ccccc2)C(=O)N1CCOc1ccccc1 | -3% | -30% | -1% | 21% | 3% | / | / | -25%[46.1 µM]
CCO/C=C1\C(=O)N(c2ccccc2)C(=O)c2ccccc21 | -2% | 1% | 4% | / | 7% | -24% | -4% | -1%
C[C@]12CCC(=O)C=C1CC[C@@H]1[C@@H]2C(=O)C[C@]2(C)C(=O)CC[C@@H]12 | -6% | -5% | 6% | -21% | -3%[18.4 µM] | -2.2% | 17% | 18%
Cc1cc(NC(=O)CSc2nnc(C)c(=O)[nH]2)no1 | / | 1% | 3% | -12% | 12% | 0.8% | 14% | /
O=C(CC1C(=O)NCCN1Cc1ccccc1C(F)(F)F)NCCc1ccccn1 (stereo not drawn) | / | 2% | 2% | -8% | -4% | / | / | /
O=C(CC1CCCC1)OCn1nnc2ccccc2c1=O | 24% | -33% | -5% | -15% | -18% | -6.0% | -9% | 4%
O=C(C1CCC(=O)N(C2CCCCCC2)C1)N1CCN(c2ccccc2Cl)CC1 (stereo not drawn) | / | -7% | -3% | ? | 4% | / | / | /
CC1CCN(C(=O)COc2ncnc3ccccc23)CC1 | 8% | / | 1% | 36%[activator] | 1% | / | / | 14%[46.1 µM]
CC(=O)Nc1ccc(S(=O)(=O)Nc2ccccc2C(=O)NCc2cccnc2)cc1 | 1% | 12% | -5% | -7% | 36% | / | / | 2%[46.1 µM]
COc1cccc(CNC(=O)C2CCN(S(=O)(=O)c3c(C)nn(C)c3C)CC2)c1 | / | 2% | 3% | -13% | -20% | 0.9% | 5% | 1%
CSc1nsc(SCC(=O)Nc2ccc(O)c(C(=O)O)c2)n1 | 20%[46.1 µM] | 2% | 6% | 2% | 1% | / | / | 2%[46.1 µM]
CC(C)(C)NC(=O)COc1ccc(CNCCc2ccccc2)cc1 | 2%[46.1 µM] | -1% | -2% | 0% | -21% | / | / | ?
O=C(N/N=C/c1ccc(O)c(O)c1O)/C(=C/c1ccc([N+](=O)[O-])cc1)NC(=O)c1ccccc1 | -13% | -3% | 2.5µM* | -29% | -8% | -11% | 1% | -24%
CCCCn1c(-c2sccc2C)n[nH]c1=S | 12% | 0% | 1% | -20% | 14% | / | / | 14%[46.1 µM]
O=c1[nH]c(N2CCOCC2)nc2ncn(Cc3ccccc3)c12 | 6% | 6% | 0% | 10% | 3% | 4.6% | -9% | 11%
CCOc1ccc(NC(=O)CN2CCN(c3ccccc3C)CC2)cc1S(=O)(=O)N1CCCC1 | -5% | / | 2% | 0% | -8% | / | / | -4%
C=CCNc1nc(NCCN2CCOCC2)nc(OC)n1 | 3% | 5% | 2% | -23% | -1% | 6.7% | -1% | 3%
CCOC(=O)c1ccc2c(c1)n(CC)c(/C=C/Nc1ccccc1)[n+]2CC | ? | -4% | -3% | / | -21% | -0.3% | -23% | ?
CCc1ccc(OCC(=O)N/N=C/c2ccc(OS(=O)(=O)c3ccc(C)cc3)c(OC)c2)cc1 | / | 24% | 22% | 6% | 16% | -4.7% | -3% | -1%
COc1ccc2nc3oc(C(=O)N4CCN(c5cccc(C(F)(F)F)c5)CC4)cc3cc2c1 | -29% | -31% | -3% | -19% | 11% | -6.4% | 3% | 4%[46.1 µM]
CCN(CC)c1ccc(C(=O)N/N=C(\C)c2ccc(O)cc2)cc1 | ? | 17% | 9% | -14% | -7% | -7.7% | -14% | -21%
C=CCNC(=O)CCc1nnc(C2(c3ccc(Cl)cc3)CCC2)o1 | / | -2% | 0% | 48%[activator] | 8% | / | / | /
COc1cc(NS(=O)(=O)c2ccc(Nc3nc(-c4ccccc4)cs3)cc2)nc(OC)n1 | ? | 32% | -4% | -14% | -1% | -6.6% | -29% | 5%
Cc1c(OC(C)C(=O)NCCN2CCOCC2)ccc2c3c(c(=O)oc12)CCC3 (stereo not drawn) | / | -1% | 3% | -3% | -8% | / | / | /
O=C(NCCc1ccccn1)c1ccc(OC2CCN(Cc3ccccn3)CC2)cc1 | / | 6% | -4% | 0% | -5% | / | / | /
Cn1cc(S(=O)(=O)NCc2ccc(F)cc2)c(=O)n(C)c1=O | / | 6% | ? | 30%[activator] | 13% | / | / | /
c1ccc(-c2nn3nnnc3c3ccccc23)cc1 | 10% | -41% | 0% | -17% | -2% | 1.1% | 8% | -4%
CCc1cc(C(=O)Cc2ccccn2)c(O)cc1O | -15%[46.1 µM] | 2% | 5% | -24% | -14% | / | / | 12%[46.1 µM]
Cc1cc(C)cc(NC(=O)N2CCc3ccccc3C2)c1 | -9%[46.1 µM] | -18% | -1% | 29% | -8% | / | / | ?
COc1cccc(-c2nnc(-c3ccco3)o2)c1 | ? | -6% | -28% | -30% | -22% | -2.8% | 3% | ?
O=S(=O)(c1ccc(Oc2ccccc2)cc1)N1CCOCC1 | 6% | -28% | -3% | ? | 4% | -6.6% | 2% | -28%
CCOc1ccc(/C=C/C(=O)Nc2ccc(C(N)=O)cc2)cc1OC | -17% | 19% | 14% | -20% | 31% | -5.1% | -3% | ?
CCCCn1c(N)c(N(CC)C(=O)COc2ccc(C#N)cc2)c(=O)[nH]c1=O | 9%[46.1 µM] | / | 0% | -5% | 2% | / | / | 5%[46.1 µM]
COc1ccccc1-c1cc(C(=O)NC(C)c2ccccc2)no1 (stereo not drawn) | 22%[14.3 µM] | -42% | -2% | 23% | 4% | -6.6% | 2% | -10%
CCOC(=O)c1ccc(NC(=O)C2CC3CCC2C3)cc1 (stereo not drawn) | ? | / | / | 52%[activator] | -23% | / | / | -15%[46.1 µM]
O=c1[nH]c(=O)n(Cc2ccco2)c2c1C(C(F)(F)F)(C(F)(F)F)N=C(Cc1ccccc1)N2 | -24% | 16% | 2% | ? | 5% | -0.4% | -9% | -6%
COc1ccc(S(=O)(=O)Nc2cc(C)c(O)cc2C(C)C)cc1 | ? | -9% | 1% | -5% | -11% | 2.8% | -4% | -11%
CCCCn1c(N)c(N(CCOC)C(=O)CN2c3ccccc3CC2C)c(=O)[nH]c1=O (stereo not drawn) | -10% | / | -1% | -15% | 0% | / | / | -22%[14.2 µM]
Cc1ccc(OCc2cc(C(=O)N3CCc4sccc4C3)no2)cc1C | ? | -7% | -6% | -5% | 27% | / | / | 1%
COc1ccc(CNCC(=O)Nc2cc(OC)cc(OC)c2)cc1 | / | -3% | 3% | ? | -6% | / | / | /
CCOC(=O)c1sc(NC(=O)c2c(C)nn(Cc3ccccc3)c2C)cc1C | -12% | -31% | -3% | -24% | -2% | -6.4% | 14% | ?
CCCCOC(=O)c1ccc(NC(=O)COC(=O)CSc2nc(C)cc(C)n2)cc1 | ? | -65% | -20% | 26% | 10% | -6.6% | ? | 4%
COc1ccnc(N=CNOCc2ccc(C)cc2)c1C#N | ? | 1% | -4% | 21% | -7% | -1.8% | 3% | ?
O=[N+]([O-])c1ccc2nonc2c1Nc1cccc(F)c1 | / | 0% | 1% | -15% | 28% | / | / | 0%
CCCCN(C)Cc1c(O)ccc2c(-c3ccccc3)cc(=O)oc12 | -18% | 3% | 2% | -9% | -29% | -25% | -23% | ?
O=C(COC(=O)C1(c2ccccc2F)CCCC1)N1CCOCC1 | -3% | -1% | -2% | -15% | -1% | -4.5% | -5% | 8%
O=C(COC(=O)c1cc(=O)[nH]c2ccccc12)NC1CCCC1 | 8% | / | -1% | -12% | 1% | / | / | 5%
Cc1ccc(S(=O)(=O)N2CCOC23CCN(C(=O)c2ccc(Cl)cc2Cl)CC3)cc1 | / | -15% | -8% | -24% | 3% | / | / | /

Record cards, from the list above. Order of values: LASV entry inh, NS1 inh, SARS PLpro yeast, 2A StopGo, RE007 growth inh, Cruzain inh Det, Cruzain noTriton, MARV entry inh
COc1ccc(CNCC(=O)Nc2cc(OC)cc(OC)c2)cc1 in the list: /, -3%, 3%, ?, -6%, /, /, /
CCCCN(C)Cc1c(O)ccc2c(-c3ccccc3)cc(=O)oc12 in the list: -18%, 3%, 2%, -9%, -29%, -25%, -23%, ?

Following part:
SMILES | LASV entry inh | NS1 inh | SARS PLpro yeast | 2A StopGo | RE007 growth inh | Cruzain inh Det | Cruzain noTriton | MARV entry inh
CCOC(=O)C1=C(CS(=O)(=O)c2ccc(C)cc2)NC(=O)NC1c1cc(OC)c(OC)c(OC)c1 (stereo not drawn) | -1%[46.1 µM] | -7% | 1% | -14% | -23% | / | / | -17%[46.1 µM]
C/C(CC(=O)Nc1cccc(Cl)c1Cl)=N\NC(=O)c1ccccc1Br | 4% | 1% | -3% | -6% | -9% | / | / | 1%
CN1C(=O)CC(P(=O)(c2ccccc2)c2ccccc2)N(C)C1=O (stereo not drawn) | 7% | 8% | 0% | 0% | 27% | -5.0% | 17% | 29%
COc1ccc2nc(C)cc(N3CCC(C(N)=O)CC3)c2c1 | -3% | / | 1% | -5% | -10% | / | / | -2%[46.1 µM]
COC(=O)C1=C(N)Oc2cc(C)n(CCc3ccccc3)c(=O)c2C1c1cccnc1 (stereo not drawn) | 0% | -50% | 0% | -24% | 0% | 1.9% | 13% | ?
NC(=O)c1ccc(NC(=O)CN2CCN(c3ccccc3)CC2)cc1 | / | 15% | 1% | -14% | -8% | / | / | /
CCOC(=O)C(NC(=O)c1cccc(Cl)c1)(OCc1ccccc1)C(F)(F)F (stereo not drawn) | ? | -19% | -1% | -7% | -10% | -3.7% | -3% | ?
CCn1cc(CN2CCCC(C(=O)Nc3cccc(-c4cc5ccccc5[nH]4)c3)C2)cn1 (stereo not drawn) | ? | 16% | ? | -15% | -14% | / | / | ?
CCn1cnc2cc(NS(=O)(=O)c3ccc(OC)c(OC)c3)ccc21 | ? | 3% | -4% | -8% | 7% | / | / | 13%[46.1 µM]
COc1ccc(OC)c(Nc2cc(-c3ccccc3)nc(N)n2)c1 | -29% | -15% | -7% | -12% | 11% | -4.4% | -14% | ?
NC[C@H](CP(=O)(O)O)c1ccc(Cl)cc1 | / | / | / | 4% | / | -0.4% | 4% | 0%&0%
